High-throughput results (PubChem BioAssay)
Sa growth 42C = inhibitors of Staphylococcus aureus growth at 42 °C. S. aureus RN4220 growth, OD600, 20 h; active compounds read low. relative growth, % (no concentration beside the values). 0.53% of 170,000 active;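 active means growth at 42 °C up to 50% and 20 or more points under that at 30 °C, or under 10% at both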;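 further: 300 nL library stock went into each well; scaled to the means of positive and negative controls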
GIV-Gai inh = GIV-Galpha-i interaction inhibition | P08753 | Galpha-i3/FITC-GIV peptide fluorescence polarization, 90 min; active compounds read low; scaled: aluminum fluoride 0%, vehicle 100% | percent of control (FP), % (test concentration not listed) | 0.42% of 210,000 active | AID 1224905;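 active means replicate mean at 85% of control or lower, very high polarization wells dropped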;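 further: lower values mean more displacement of the GIV peptide from Galpha-i3; wells of about 15 µL received 100 nL stock; the first replicate is given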
Target sequence (P08753 whole entry, looked up): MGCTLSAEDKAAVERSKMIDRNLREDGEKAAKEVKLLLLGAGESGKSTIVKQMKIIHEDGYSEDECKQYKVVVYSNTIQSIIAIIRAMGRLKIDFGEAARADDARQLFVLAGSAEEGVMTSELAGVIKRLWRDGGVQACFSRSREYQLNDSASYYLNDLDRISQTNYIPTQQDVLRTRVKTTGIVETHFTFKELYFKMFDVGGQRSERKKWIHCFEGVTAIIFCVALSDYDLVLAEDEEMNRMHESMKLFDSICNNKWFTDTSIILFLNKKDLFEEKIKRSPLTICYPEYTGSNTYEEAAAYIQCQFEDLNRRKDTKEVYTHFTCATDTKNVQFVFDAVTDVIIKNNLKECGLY
HCMV UL50-53 inh = disrupts HCMV UL50-UL53 complex binding; HTRF UL50-UL53 interaction, normalized percent inhibition; inhibition, % (concentration not given with the values); 0.15% of 190,000 active; AID 1918969;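 active means both replicates at 50% or more, plus weaker picks with an unusually low signal ratio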;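 further: stock transfer was 100 nL into about 20 µL; 0% = negative control wells and 100% = wells with untagged competitor protein; inactives centre near -12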
Sa growth 42C second temp = further read-out of Sa growth 42C, marked with its call; relative growth, %; measured here: growth at 30 °C;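 optical density after 20 h as mean of two plates; 100% = untreated growth and lower means inhibition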
Active calls of the source: *; . = no result given; & = joins results of further samples. Compounds were not picked by outcome. Share with any hit: about 0.83%.

SMILES | Sa growth 42C | Sa growth 42C second temp | GIV-Gai inh | HCMV UL50-53 inh
NC(=O)c1ccccc1OCC(=O)NCC(F)(F)F | 99 | 95 | . | -3
Cc1sc2nc(CSC(C)C(=O)OCc3cc(=O)n4ccsc4n3)[nH]c(=O)c2c1C (stereo not given) | 89 | 101 | . | 4
COc1cc(CNCc2c(C(=O)O)c(C)n(Cc3cccc(Cl)c3)c2C)cc(OC)c1OC | 95 | 95 | 103 | 2
O=C(C1CCN(c2nc3ccccc3n3cccc23)CC1)N1CCN(c2ccccn2)CC1 | . | . | 101 | -16
CCN(CC)Cn1nc(-c2ccccc2Cl)oc1=S | 87 | 83 | 105 | -21
N#CCSc1nnnn1-c1cccnc1 | 92 | 87 | 101 | -20
CC(C)CCNC(=O)c1cccn2c(=O)c3cc4ccccc4cc3nc12 | 121 | 85 | 108 | .
CCOC(=O)Cc1cc(=O)n2[nH]c(C)cc2n1 | 89 | 88 | 94 | -11
C(/C=C/c1ccn[nH]1)=C\c1ccccc1 | 100 | 94 | 101 | -8
CC(=O)N1c2c(cc(Br)cc2S(=O)(=O)N2CCN(c3ccc(C)cc3)C(C)C2)CC1C (stereo not given) | 101 | 94 | 100 | -3
O=C(O)C(CO)c1ccccc1 (stereo not given) | 104 | 94 | 97 | 5
COc1c(C)cnc2c1c(=O)n(CC(=O)N1CCc3ccccc31)c(=O)n2C | . | . | 106 | -1
O=C1OC(C2CCCCC2)=N/C1=C\c1ccccc1 | 91 | 93 | 99 | .
CCOc1ccc(OCC)c(NC(=O)c2nnn(Cc3cc(Br)ccc3OC)c2N)c1 | 109 | 85 | 105 | -13
CC1CC(C)CN(c2ncnc3c2nc2n3CCCCC2)C1 (stereo not given) | 99 | 103 | 103 | 6
O=S(=O)(NCc1ccccc1)c1ccccc1C(F)(F)F | 98 | 88 | . | -10
C=CCn1c(=O)c2ccccc2n2c(SCC(=O)c3cc(C)ccc3C)nnc12 | 96 | 97 | . | -14
NC1=Cc2ccccc2CN1c1ccccc1Cl | 100 | 84 | . | -10
COc1ccc(CNC(=O)C2C(Oc3ccc(Cl)cc3Cl)C(=O)N2c2cccc(C)c2C)cc1 (stereo not given) | 101 | 64 | 104 | .
O=c1c2ccccc2c2ccccc2c(=O)n1Cc1cccnc1 | 102 | 91 | 96 | .
CCOC(=O)C1(C(=O)OCC)CC1(C(=O)OCC)C(=O)OCC | 101 | 93 | 105 | -9
CC1(C)CCCC2=C1CC(C(=O)O)C(C(=O)NCc1cccnc1)C2 (stereo not given) | 107 | 95 | . | -31
Cc1ccsc1C=Nc1ccc(Cl)cc1C(=O)c1ccccc1 | 106 | 76 | 97 | .
O=C(N/C(=C\c1cccnc1)C(=O)N1CCCCC1)c1ccccc1 | 102 | 84 | . | -19
Cc1ccccc1CS(=O)(=O)Cc1ccc(C(=O)NC2CC2)o1 | 101 | 93 | 105 | .
O=c1c2sccc2n2c(SCc3ccccc3Cl)nnc2n1CC1CCCO1 (stereo not given) | . | . | 102 | -7
CC(C)Oc1ccc(CNC(=O)C2CCN(c3nc4ccccc4nc3C(F)(F)F)CC2)cc1 | 104 | 91 | 102 | .
COc1cc(N=Cc2cc3cccc(C)c3nc2Cl)c(OC)cc1Cl | 95 | 92 | . | -18
O=C(CC(c1cccs1)N1Cc2ccccc2C1=O)Nc1ccc(F)c(Cl)c1 (stereo not given) | 76 | 88 | 97 | .
CC1C(=O)OC(c2ccc(Br)cc2)C(C)(C)C1=O (stereo not given) | 180 | 106 | . | -9

Nothing new here: entries from further up.
SMILES | Sa growth 42C | Sa growth 42C second temp | GIV-Gai inh | HCMV UL50-53 inh
CCOC(=O)C1(C(=O)OCC)CC1(C(=O)OCC)C(=O)OCC | 101 | 93 | 105 | -9
CC1(C)CCCC2=C1CC(C(=O)O)C(C(=O)NCc1cccnc1)C2 (stereo not given) | 107 | 95 | . | -31
Cc1ccsc1C=Nc1ccc(Cl)cc1C(=O)c1ccccc1 | 106 | 76 | 97 | .
O=C(N/C(=C\c1cccnc1)C(=O)N1CCCCC1)c1ccccc1 | 102 | 84 | . | -19

Continuation.
SMILES | Sa growth 42C | Sa growth 42C second temp | GIV-Gai inh | HCMV UL50-53 inh
CCOC(=O)c1nc2cc(C)c(C)cc2nc1NCc1ccc2c(c1)OCO2 | . | . | 80* | -12
COc1ccc(/C=N/S(=O)(=O)c2cccs2)cc1 | 85 | 92 | . | -7
CC1CCN(C(=O)c2ccc3c(c2)OCCO3)CC1 | 98 | 77 | 102 | -11
CCc1ccc(CCC(=O)O)cc1 | 97 | 87 | . | 1
O=C(c1ccc(F)cc1)N1CCc2c([nH]c3ccccc23)C1c1ccc(Cl)cc1 (stereo not given) | 89 | 101 | 100 | .
COc1ccc(CC(=O)NCCc2csc3nc(-c4ccccc4F)nn23)cc1 | 83 | 84 | 100 | .
Cc1ccc(-c2cn(S(=O)(=O)c3cccc4nsnc34)nc2N)cc1 | 118 | 105 | 103 | -90
CCC(=O)NC(C)c1nc(-c2ccc(C)cc2)no1 (stereo not given) | . | . | 94 | 0
O=C(Nc1ccc2ccccc2c1)/C(=C/c1ccco1)c1ccccc1 | 100 | 96 | . | 5
COc1cc(OC)c(NC(=O)/C=C/c2cc(C)n(Cc3ccco3)c2C)cc1Cl | 92 | 90 | . | -6

The last 4 entries of the section before come first, to join the parts:
SMILES | Sa growth 42C | Sa growth 42C second temp | GIV-Gai inh | HCMV UL50-53 inh
Cc1ccc(-c2cn(S(=O)(=O)c3cccc4nsnc34)nc2N)cc1 | 118 | 105 | 103 | -90
CCC(=O)NC(C)c1nc(-c2ccc(C)cc2)no1 (stereo not given) | . | . | 94 | 0
O=C(Nc1ccc2ccccc2c1)/C(=C/c1ccco1)c1ccccc1 | 100 | 96 | . | 5
COc1cc(OC)c(NC(=O)/C=C/c2cc(C)n(Cc3ccco3)c2C)cc1Cl | 92 | 90 | . | -6
Cc1cc2ncn(S(=O)(=O)N(C)C)c2cc1C | 87 | 91 | 98 | -6
CC(C)C(=O)N1CCC(CN=CC2=C(O)CC(C)(C)CC2=O)CC1 | 119 | 98 | 95 | -16
COc1ccccc1C1c2cc3c(cc2OC(C)(O)C1C)OCO3 (stereo not given) | 93 | 94 | . | -2
O=C(CSc1nnc(-c2ccc(Cl)cc2)o1)c1ccc(Cl)cc1 | 109 | 86 | 109 | -25
O=C(O)C1CCCCC1C(=O)Nc1cccc(C(F)(F)F)c1 (stereo not given) | 121 | 109 | . | 4
Brc1ccc(-c2nnc3sc(CNCc4ccco4)cn23)cc1 | 103 | 95 | 110 | 2
CN1CCN(CC(O)COc2ccc3ccccc3c2)CC1 (stereo not given) | 122 | 99 | . | 3
Cc1cc(-c2ccco2)n(CC(=O)O)n1 | 102 | 85 | 110 | .
CC1CN(c2ncc(C(=O)OCc3ccccc3)c(C(F)(F)F)n2)CC(C)O1 (stereo not given) | 92 | 85 | 102 | -17
CN(CC(=O)Nc1ccc(F)c(F)c1F)C(=O)C1COc2ccccc2O1 (stereo not given) | 91 | 89 | . | 11
Cc1ccc(C(C)C)cc1OC(=O)c1cn(CCC#N)nc1-c1cccs1 | 115 | 105 | 108 | 0
CCCOC(=O)COc1ccc2c(=O)c(Oc3cccc(C)c3)c(C(F)(F)F)oc2c1 | . | . | 105 | -9
COC(=O)c1c[nH]n2c(=O)c(C(C)C)c(C)nc12 | 91 | 93 | 105 | .
CC(C)(C)c1cc(C(=O)O)n[nH]1 | 101 | 93 | 99 | .
CCN(CCN(C)C)c1ncc(C(=O)O)cc1NS(=O)(=O)c1ccc(C(C)C)cc1 | . | . | 60* | -18
Cc1cc2nc(CSc3nnc(NC(=O)COc4ccccc4)s3)cc(=O)n2o1 | . | . | 98 | -3
CC(C)Cn1c(=S)[nH]c2ccccc2c1=O | 121 | 101 | . | -23
CCOc1ccc2[nH]c(=O)c(CN(CCc3ccccc3)C(=O)N(C)C)cc2c1 | 82 | 96 | 102 | -28
CCc1ccc(-c2nc(SCC(=O)N3CCCC3=O)n[nH]2)cc1 | 120 | 107 | . | 16
N#CCCCn1c(-c2ccc(Cl)cc2)noc1=O | 95 | 89 | 106 | 5
Cc1ccc(C(=O)N2CCN(CCc3ccncc3)CC2)cc1 | 115 | 90 | 104&100 | -7&4
COc1ccc(N2CCN(c3ccc(OC)cc3)C2c2cc(OC)ccc2O)cc1 | 90 | 74 | 107 | -12
CCN(Cc1ccccc1)C(=O)COC | 86 | 105 | 104 | 11
Cc1ccnc(NC(=O)c2c(C)oc3ncn(CC(C)C)c(=O)c23)c1 | 74 | 94 | 97 | .
Nc1nc2c(c(=O)[nH]1)C(c1ccccc1Cl)CC(=O)N2 (stereo not given) | . | . | 103 | -12
O=C(OCN1C(=O)c2ccccc2C1=O)C1CCN(S(=O)(=O)c2ccc(Cl)cc2)CC1 | 96 | 97 | . | 6
CC(C(=O)c1ccccc1)C1(O)C(=O)Nc2ccc(Br)cc21 (stereo not given) | . | . | 103 | -10
COc1ccccc1CNC(=O)CN(c1ccc(C)cc1)S(=O)(=O)c1c(C)noc1C | 107 | 97 | 104 | -28
O=C1CC(c2nnc(Cc3ccc(Cl)cc3)o2)CN1c1ccccc1 (stereo not given) | 99 | 89 | 104 | 5
Cc1cc2c(cc1S(=O)(=O)NCCC1=CCCCC1)n(C)c(=O)c(=O)n2C | 100 | 75 | 101 | -4

GIV-Gai inh: hit marks shown above
canonical_smiles,Sa growth 42C,Sa growth 42C second temp,GIV-Gai inh
CCOC(=O)c1nc2cc(C)c(C)cc2nc1NCc1ccc2c(c1)OCO2,.,.,80*
CCN(CCN(C)C)c1ncc(C(=O)O)cc1NS(=O)(=O)c1ccc(C(C)C)cc1,.,.,60*

The listing continues.
SMILES | Sa growth 42C | Sa growth 42C second temp | GIV-Gai inh | HCMV UL50-53 inh
COc1ccc(C2CC(c3ccccc3)=NN2c2nc(C)cs2)cc1OC (stereo not given) | . | . | 102 | -44
CCN(CC)c1nn2c(=O)c(C(=O)NCc3ccc(N(C)C)cc3)cnc2s1 | 100 | 91 | 105 | .
O=S(=O)(c1ccc(C2CCCCC2)cc1)N1CCc2nc(N3CCCCC3)ncc2C1 | . | . | 110 | -3
O=C(O)c1cc2ccccc2n1-c1ccccc1 | 121 | 101 | 103 | -26
COc1cc(CCC(=O)NC2CCCCC2)cc(OC)c1OC | 96 | 87 | 101 | .
COCCN1C(=O)c2ccccc2C(C(=O)N2CCCC2)C1c1cn(C)c2ccccc12 (stereo not given) | 102 | 89 | 100 | -20
O=C(Nc1ccccc1)c1ccc(S(=O)(=O)c2ccc(Br)cc2)nc1 | . | . | 103 | -26
CC1SC(C)C(=O)N(CC(=O)Nc2ccccc2F)C1=O (stereo not given) | 103 | 93 | 104 | 1
COc1ccc(CCNC(=O)CCc2c(C)nc3cc(-c4ccccc4)nn3c2C)cc1OC | 99 | 84 | 104 | -22
Cc1ccc(NC(=O)c2ccc(S(=O)(=O)N3CC(C)CC(C)C3)cc2)c(C(=O)c2ccccc2)c1 (stereo not given) | 109 | 96 | 108 | .
COC(=O)C1=C(C)OC(N)=C(C#N)C1c1ccc(C(C)C)cc1 (stereo not given) | . | . | 103 | -33
CN1c2ccccc2Oc2nnc(N3CCN(C(=O)c4ccco4)CC3)cc21 | 99 | 85 | 111 | -27
Cc1ccc(CNc2cc(C)nc3nc(-c4ccc(C)cc4)nn23)cc1 | 87 | 93 | 109 | .
COC(=O)c1cc(S(=O)(=O)N(C)CC(=O)Nc2cccc(Cl)c2)cn1C | . | . | 115 | -6
COC(=O)c1cc(NC(=O)NCc2noc3ccccc23)cc(C(=O)OC)c1 | 93 | 85 | 99 | -20
COc1ccc(NC(=O)C2CCC(Cn3c(=S)[nH]c4ccsc4c3=O)CC2)cc1 (stereo not given) | 128 | 94 | 103 | .
CN1C(=O)c2cc(C(=O)NC3CCCCC3)nn2CC1(C)C(=O)NC1CCCCC1 (stereo not given) | . | . | 101 | -4
c1ccc(-c2csc3c4ncnc-4ncn23)cc1 | 81 | 92 | 100 | -9
CCCN(C(=O)Cc1c(C(=O)O)[nH]c2ccc(Cl)cc12)c1ccc(OCC)cc1 | 29* | 49* | 106 | -4
COc1ccc(C(=O)C2CC2)cc1 | 97 | 104 | 95 | 10
CCc1cc(C(Nc2nc(C)cc(C)n2)c2ccc(F)cc2)c(NC(=O)c2ccccc2)s1 (stereo not given) | . | . | 106 | -20
Cc1ccc(OCc2nc(C#N)c(NCCN(C)C)o2)cc1 | 91 | 88 | 101 | .
O=C(c1ccc(CS(=O)(=O)c2ccc(Br)cc2)o1)N1CCN(c2ccc(Cl)cc2)CC1 | 120 | 108 | 109 | 26
COc1ccc(-c2cn3nc(N4CCC(C(=O)Nc5cc(Cl)ccc5C)CC4)sc3n2)cc1 | 104 | 88 | 100 | .
Cc1cc(C(=O)COC(=O)c2ccccc2S(C)=O)c(C)n1CCC1=CCCCC1 (stereo not given) | 26 | 36 | . | -24
Cc1noc(C)c1CSc1ncccc1C(=O)NCCc1c[nH]c2ccccc12 | 88 | 71 | . | -4
CC1CCN(S(=O)(=O)c2ccc3c(c2)CCN3C(=O)Nc2cccc(Br)c2)CC1 | 105 | 97 | 101 | -20
Cc1ccc(-c2nnc(C3CCN(S(=O)(=O)c4ccc(C)c(C)c4)CC3)o2)cc1 | 88 | 106 | 105 | -9
